Compound activity: PubChem, several laboratories
Sa RN4220 lethal: S. aureus RN4220 growth inhibition; OD600, 16 h; inhibition, % (concentration not given with the values); 330,000 compounds, 0.33% hits;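 active means z-score of -3 or lower and OD600 up to 0.18 on both plates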;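 further: plate controls were untreated cells for no effect and reference antibiotic for full effect; stock transfer was 100 nL into about 80 µL; one replicate is shown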
Sa ugtP lethal: growth inhibition of S. aureus ugtP deletion strain; 330,000 compounds, 0.54% hits; growth inhibition, % (no concentration beside the values); S. aureus RN4220 ugtP deletion, OD600 growth, 16 h; some inactives read as strong as hits;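 active means z-score under -3 and OD600 up to 0.15 on both plates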;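 further: plate controls were untreated wells for no effect and antibiotic for full effect; wells of about 80 µL received 100 nL stock; the first replicate is given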
Bead autofluor: counter-screen for toxin protease inhibitors: compound fluorescence. compound autofluorescence counterscreen, microsphere flow cytometry; active compounds read high. fluorescence intensity (concentration not given with the values). AID 624483. 360,000 compounds, 3.1% hits;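 active means at least 3 SD above the mean of all compounds, about 16000 in these data; inconclusive means too few beads counted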;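 further: 100 nL of 1 mM stock went into each well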
BJeLR lethal: kills HRASV12-expressing BJeLR cells; BJeLR (HRASV12) viability, CellTiter-Glo ATP luminescence, 48 h; reference of the scale not given here; inhibition, % (no concentration beside the values); 300,000 compounds, 0.17% hits; AID 1554;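 active means replicate mean above 50%; inconclusive means above 50% but judged a plate artefact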;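 further: 50 nL library stock added to about 25 µL; numbers are from one replicate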
PrP UTR inh: suppresses PrP 5' UTR mRNA reporter expression. 340,000 compounds, 0.35% hits. inhibition, % (no concentration beside the values). cell-based PrP 5' UTR mRNA reporter, plate reader. AID 488862;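 active means every replicate at 50% or more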;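 further: 0 = median of the neutral control wells; tested in H4 reporter cells; numbers are from one replicate; inactives centre near -14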
Mtb hypoxia rep: Mtb hypoxia fluorescent reporter inhibition; M. tuberculosis hypoxia-regulated fluorescent reporter, fluorescence; fluorescence inhibition, % (concentration not given with the values); 300,000 compounds, 0.1% hits; AID 1159583;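 active means 35 to 45% if threefold the growth effect, above 45% if 1.5-fold the growth effect; inactive means the rest, general growth blockers included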;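 further: wells of about 50 µL received 100 nL stock; 0% = vehicle wells and 100% = reference inhibitor wells; whole bacteria with a GFP reporter of the hypoxia response; strong numbers were not always called active; many hits fall short of the cut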
Mtb hypoxia rep growth: also measured in Mtb hypoxia rep; calls as there; growth inhibition, %; measured here: M. tuberculosis growth (absorbance);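 0% = vehicle and 100% = reference antibiotic; read after six days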
* = called active by the depositor; ? = inconclusive; · = no result given.

Below each SMILES: Sa RN4220 lethal, Sa ugtP lethal, Bead autofluor, BJeLR lethal, PrP UTR inh, Mtb hypoxia rep, Mtb hypoxia rep growth
1: COc1ccccc1CN1C[C@@H]2C[C@@H](c3ccccc3C)N3CCC[C@@]23C1=O
    3.3, 6, 11170, -2, -10, 5, 1
2: O=c1cc(NCCO)c2ccccc2o1
    12, 3, 3019, -4, -11, -2, 13
3: CC(=O)NC1=NC(=O)/C(=C/c2cn(C(C)=O)nc2-c2ccccc2)S1
    ·, ·, 2259, -7, -13, ·, ·
4: COc1ccccc1CNS(=O)(=O)c1cc2c3c(c1)C(C)C(=O)N3CCC2 (configuration not stated)
    6.0, 0, 5737, 7, -11, 4, 4
5: CCN(CC)S(=O)(=O)c1ccc(-c2nnc(SCC(=O)Nc3ccc(OC)cc3)o2)cc1
    -3.5, -8, 5796, 4, -4, -2, 5
6: CC(NC(=O)c1cc(S(=O)(=O)N2CCCC2)cn1C)c1ccccc1 (configuration not stated)
    17, 16, 4319, -1, -19, 3, 8
7: O=C(CSCCSCC(=O)c1ccco1)c1ccco1
    -4.5, 4, ·, 3, ·, 5, 3
8: Cc1cc(NNC(=O)c2cccc(C(F)(F)F)c2)nc2c1c(C)nn2C
    2.8, 3, 5105, 2, -10, 0, 8
9: Cc1ccc(NC(=O)C2(c3ccc([N+](=O)[O-])cc3)CCCC2)cc1
    2.5, -6, 2609, -4, -7, 7, 13
10: CCCC(=O)Nc1ccccc1NC(=O)c1ccc(OCC)cc1
    3.9, -1, 2774, 0, -11, 2, -4
11: CCC/C(O)=C1\C(=O)CC(C)(C)CC1=Nc1ccc(OC)cc1OC
    -1.6, 5, 5699, 43, -36, ·, ·
12: COc1cc2c(cc1OC)C(COc1ccccc1OC)N(C(C)=O)CC2 (configuration not stated)
    4.1, 7, 3312, 1, -14, 8, 5
13: CCCCNC(=O)OCC(CC)NC(=O)OCC(C)C (configuration not stated)
    -6.3, -3, 4253, -7, -15, 15, 22
14: Cc1ccc(/C=C(\NC(=O)c2ccccc2)C(=O)NCCN2CCOCC2)o1
    5.1, 6, 6110, -12, -17, ·, ·
15: Cc1ccc(/C=C2/NC(=O)N(Cc3ccccc3F)C2=O)s1
    -1.1, 6, 2658, -7, -23, 11, 3
16: CC(=O)Nc1ccc(Cc2nc3ccccc3[nH]2)cc1
    5.5, -1, 2166, -10, -24, 2, 6
17: COc1ccccc1C1=NCc2nnc(C)n2-c2ccc(Cl)cc21
    3.0, 1, 2588, 2, -15, 12, 3
18: COc1cc(NC(=O)C2CC(=O)NC3=C2C(=O)CCC3)cc(OC)c1 (configuration not stated)
    1.8, 4, 20659*, -5, -19, 6, 6
19: Cc1cc(CN2C(=O)c3ccccc3C2=O)on1
    4.5, 4, 6112, ·, -20, 0, 9
20: O=C(CC(=O)Nc1ccccc1)Nc1ccccc1
    1.8, 5, 4250, 1, -20, 9, -5
21: CCCC(=O)Nc1nnc(S(=O)(=O)N(C)Cc2ccco2)s1
    ·, ·, 5383, 4, -8, ·, ·
22: Cc1onc(-c2c(F)cccc2Cl)c1C(=O)NCc1ccccn1
    5.3, 11, 4163, -3, -30, 17, 8
23: CCn1nc(C(=O)OCC(=O)N2c3ccccc3CC2C)c2ccccc2c1=O (configuration not stated)
    -1.8, -3, 4172, 2, -15, 21, 8
24: O=C(CCNS(=O)(=O)c1cccc2nsnc12)NCc1ccc(F)cc1
    6.3, 9, 3558, 2, 1, 10, 2
25: CN(CC(=O)Nc1ccccc1Cl)CC(=O)N1CCc2ccccc21
    8.1, 6, ?, ·, -7, 1, 2
26: C#Cc1ccc([C@@H]2C=C(C(=O)N3CCOCC3)O[C@H](OCc3ccc(CO)cc3)C2)cc1
    ·, ·, 3433, -1, -26, ·, ·
27: NC(=O)COC(=O)C12CC3CC(CC(O)(C3)C1)C2
    1.9, -5, 2336, -1, -19, 3, 13
28: Clc1nccnc1N/N=C/c1ccc(Br)cc1
    ·, ·, 3584, 13, -67, ·, ·
29: O=C(NC1CCCCC1)C1CCCN(S(=O)(=O)c2ccc(F)cc2)C1 (configuration not stated)
    -3.2, -1, 3838, 0, 8, -10, 6
30: CCC1=Nc2cc(C(=O)NCCCOC)ccc2Sc2ccccc21
    0.1, -6, 9342, 47, 77*, 0, 1

Two records drawn at random from the list so far, as already listed:
Below each SMILES: Sa RN4220 lethal, Sa ugtP lethal, Bead autofluor, BJeLR lethal, PrP UTR inh, Mtb hypoxia rep, Mtb hypoxia rep growth
28: Clc1nccnc1N/N=C/c1ccc(Br)cc1
    ·, ·, 3584, 13, -67, ·, ·
18: COc1cc(NC(=O)C2CC(=O)NC3=C2C(=O)CCC3)cc(OC)c1 (configuration not stated)
    1.8, 4, 20659*, -5, -19, 6, 6

More results follow:
Below each SMILES: Sa RN4220 lethal, Sa ugtP lethal, Bead autofluor, BJeLR lethal, PrP UTR inh, Mtb hypoxia rep, Mtb hypoxia rep growth
31: CC(C)C(NC(=O)CCNC(=O)c1ccc(C(C)(C)C)cc1)c1nc2ccccc2[nH]1 (configuration not stated)
    -2.0, 4, 3502, ·, 1, -2, 10
32: C=CCn1c(CCNC(=O)c2cccs2)nnc1SCC(=O)c1cccc([N+](=O)[O-])c1
    0.7, -2, 14951, 4, -5, -4, 4
33: NS(=O)(=O)c1ccc(CCNC(=O)COc2ccc3c4c(c(=O)oc3c2)CCC4)cc1
    8.0, 9, 4649, 0, 5, 0, -10
34: CCS(=O)(=O)Nc1ccc(-c2nnc(SCC(=O)OC)o2)cc1
    -1.6, 1, 2706, -3, -7, ·, ·
35: C=CCOC(=O)C1=CC(c2ccc3c(c2)OCO3)CC(OCc2ccc(CO)cc2)O1 (configuration not stated)
    4.4, 2, ·, ·, ·, 5, 4
36: O=C1C2=C(SCCS2)C(=O)N1c1ccccc1
    4.0, 2, 19116*, -6, -18, -4, -2
37: CSc1ccccc1NC(=O)N1CCCC(C(=O)c2ccc3c(c2)OCO3)C1 (configuration not stated)
    5.8, -1, 4421, -7, -19, 10, 2
38: CC(C)(C)c1nnc(NS(=O)(=O)c2cc(Cl)ccc2Cl)s1
    1.2, 8, ·, -9, -17, -3, -2
39: COc1ccc(C=NOCc2ccc(Br)cc2)c(OC)c1
    -1.9, 87*, ·, ·, ·, 11, 5
40: COc1ccc(CCN2C(=O)CC(NC34CC5CC(CC(C5)C3)C4)C2=O)cc1OC (configuration not stated)
    8.7, 2, 4891, 12, -4, 15, 7
41: Nc1cc(OC(=O)c2ccco2)nn1S(=O)(=O)c1ccc(F)cc1
    1.1, 2, 3724, -2, -13, 9, 3
42: COc1ccccc1Oc1cc(-n2nc(C)cc2C)ncn1
    2.8, -7, 10685, 3, -29, 11, 9
43: COc1ccc(S(=O)(=O)NCC(c2cccnc2)N2CCN(c3ccccc3OC)CC2)cc1C (configuration not stated)
    -8.4, -4, 2995, ·, -6, -1, 8
44: N#CC1=C(N)C2=CCCC[C@H]2[C@H](c2ccc(Br)cc2)C1(C#N)C#N
    39, 13, 2615, ·, -5, 1, 2
45: COc1ccc(Nc2c3c(c(C#N)c4nc5ccccc5n24)CCC3)cc1
    4.1, -8, 3374, 5, -5, 12, 5
46: Cn1cccc1C(=O)OCC(=O)N1CC(=O)Nc2ccccc21
    1.8, 1, 5533, 13, -10, 12, -5
47: COc1cccc(/C=N/NC(=O)c2ccc([N+](=O)[O-])cc2Cl)c1O
    ·, ·, 2522, -4, -2, ·, ·
48: O=C(NNC(=O)C1CC(c2cccs2)=NO1)NC1CCCCC1 (configuration not stated)
    4.3, 6, 4049, -10, -12, -2, 3
49: Cc1ncc(CO)c(/C=N/Nc2ccc(C(F)(F)F)cn2)c1O
    ·, ·, 5276, 17, 48, ·, ·
50: Cc1ccc2nc3c(c(Nc4ccc5c(c4)OCCO5)c2c1)CCC3
    1.9, -11, 2214, -1, -14, 5, 1
51: COc1cccc(C2CC(=O)NC3=C2C(=O)CCC3)c1 (configuration not stated)
    0.8, -1, 4697, 2, -2, ·, ·
52: CC1=NN(C(=O)COc2cc(C)ccc2C(C)C)C(O)(c2ccccc2)C1 (configuration not stated)
    3.3, 3, 3921, 5, -2, 6, 1
53: O=C(Nc1ccccc1C(=O)NCc1ccccc1)C1=CSCCO1
    4.8, -4, 5446, -6, -31, -7, 1
54: CCOC(=O)c1ccc(NCn2c(=O)oc3ccccc32)cc1
    3.5, 4, ?, -2, -30, -3, 5
55: O=C(Nc1ccc(Cl)cc1Cl)c1ccc(-c2ccccc2)cc1
    6.3, 5, 1998, 7, -18, 4, 2
56: COc1ccc(C2=NCC(=S)Nc3ccc(Cl)cc32)cc1Cl
    34, 13, 4327, 2, -10, 16, 1
57: Cc1cc(Cl)ccc1C(=O)C1CCCN(C(=O)c2cncs2)C1 (configuration not stated)
    3.7, 2, 5333, 7, 1, 13, 11
58: Cc1nn(-c2ccccc2)c(C)c1/C=N/NC(=O)CSc1nc2ccccc2c(=O)n1-c1ccccc1
    ·, ·, 2034, -9, 1, ·, ·
59: C=CCn1c(SCC(=O)N2CCOCC2)nc2sc(CC)cc2c1=O
    8.2, 8, 3397, ·, 23, 1, -7
60: CCOC(=O)c1sc(NN=C(C(=O)OC)C(=O)OC)c(C(=O)OCC)c1C
    5.1, 5, 2437, -9, -21, 5, 16
61: CCN(CC)C(=O)c1sc2nc(N3CCOCC3)c3c(c2c1N)CCCC3
    6.5, 6, 9736, 4, -1, 18, 9
62: COc1cccc(C(=O)NCC(c2ccc3c(c2)OCO3)N2CCN(c3ccc(F)cc3)CC2)c1 (configuration not stated)
    -1.1, 8, ·, 2, -5, 6, 4
63: Cc1noc(C)c1CSCC(=O)Nc1ccc(S(=O)(=O)C(F)F)cc1
    2.2, 11, 4781, 10, -35, 5, 6
64: O=C(NC(=S)Nc1ccc2nc[nH]c2c1)c1ccccc1
    -0.4, 18, 5534, -5, -29, -4, 7
65: O=C1ON=C(c2ccccc2)/C1=C/c1ccc(-c2ccccc2[N+](=O)[O-])o1
    12, 15, 9904, ·, 5, 12, 9
66: Cc1cccc(N=Nc2c(C)[nH]n(-c3ccccc3)c2=O)c1
    5.4, -10, 2588, -2, -42, 9, -6
67: CCOC(=O)/C=c1/s/c(=C/c2ccccc2OC)c(=O)n1CC(=O)N1CCOCC1
    0.5, 3, 4498, ·, -7, 3, 5
68: CC1(C(=O)NNC(=S)NCC2CCCO2)CC1(Cl)Cl (configuration not stated)
    3.3, 9, 6646, -4, -18, -3, 0
69: COc1cccc(NC(=O)C2CC(=O)N(C)C(=Nc3cccc(F)c3)S2)c1 (configuration not stated)
    3.9, 12, 7274, 0, -18, 5, -1
70: CN=C1S/C(=C\c2cccn2-c2cccc(Br)c2)C(=O)N1C
    3.1, -4, ·, 9, ·, 0, 2
71: O=C1OCCN1C(=O)C1C(c2ccc(Cl)cc2)C(c2cccc(Cl)c2)=NN1c1ccccc1 (configuration not stated)
    -4.9, 9, ·, ·, ·, 6, 5
72: O=S1(=O)CCO[C@H]2Cc3ccccc3[C@H]2N1Cc1ccccc1
    ·, ·, 3505, -1, -24, ·, ·
73: COc1cc(SC)ccc1C(=O)Nc1nc2ccccc2[nH]1
    ·, ·, 5124, 121*, 96*, ·, ·
74: CSC(=S)N/N=C/c1c[nH]c2ccccc12
    ·, ·, 2465, -4, -39, ·, ·
75: N#Cc1ccccc1CSc1ccc(-c2nc3ccccc3[nH]2)cn1
    -5.1, -3, 8472, -1, -19, 13, 5
76: CN1CCN(C(=O)c2ccc(-c3nn(C)c(=O)c4ccccc34)cc2)CC1
    2.5, 5, 10791, 5, ·, -3, 2
